Source: PubChem BioAssay
Rango-impB inh: Rango-importin beta binding inhibition; Potency, µM (top dose mostly 92.2 µM), without a hit: at the top dose inhibition of complex formation; Rango CFP/YFP FRET sensor + importin beta, 45 min; AID 540263; 340,000 tested, 0.031% active; active = rising FRET ratio curve, often small or poorly fitted; inconclusive = mostly compound fluorescence or quenching in the first reads; inactive = flat curves in all reads;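 further: potency means the concentration at half of the fitted maximal effect; 0% = DMSO wells and 100% = buffer wells lacking importin beta; nearly all actives have a fitted effect of over 15% in size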
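FRET biosensor Rango (snurportin 1 IBB between N-terminal EYFP and C-terminal Cerulean), 50 nM in PBS/1 mM DTT/0.02% Tween-20/0.1% BSA, preincubated 5 min RT with compound; 0.125 microM importin beta added, 45 min RT, CFP/YFP FRET ratio read.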
miR-21 reporter: raises the signal of a miR-21 reporter | AID 2288 | 340,000 tested, under 10 active | Potency, µM (series often up to 38.3 µM), without a hit: at the highest dose reporter change, positive = more light | HeLa miR-21 FLuc reporter, luciferase, 48 h; active = well fitted rising curve with a large enough effect; inconclusive = small, poorly fitted or top-dose-only effect; inactive = no such curve, though single readings can be large or run the other way;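 further: % of control where 0% means no effect; miR-21 action dims this reporter so a rising signal means less miR-21 action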
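Luminescence from a firefly luciferase reporter carrying a miR-21 binding site downstream, stably expressed under a CMV promoter in HeLa cells that make miR-21 endogenously, reports miRNA modulation after 48 h compound exposure up to approximately 40uM final.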
Rango release inh: prevents RanGTP from dissociating the Rango-importin beta complex; O95149+P62826; 340,000 tested, 0.071% active; Potency, µM (series often up to 46.1 µM), for inactives: at the highest dose activity change, negative = inhibition; Biochemical FRET Rango-importin beta, RanGTP-induced dissociation; AID 540253; active means falling FRET ratio curve, often poorly fitted, with flat reads before Ran was added; inconclusive means other falling curves, or compound fluorescence or quenching; inactive means flat or rising ratio curve;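 further: potency means the concentration at half of the fitted maximal effect; % of control where 0% means no effect; nearly all actives have a fitted effect of over 45% in size; -100% = wells without RanGTP and RCC1; the record marks most hits as doubtful in a second field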
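FRET read at 45 min, room temperature: inhibitors block the CFP/YFP signal rise when RanGTP (0.6 uM Ran, 2 mM GTP, 0.2 uM RCC1) frees Rango (0.1 uM) from importin beta (0.25 uM). Pre-read after 5 min compound exposure flags interference.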
GLA inh pH 4.5: blocks human alpha-galactosidase A at pH 4.5; P06280; purified enzyme, 4-MU-alpha-Gal fluorescence, pH 4.5; activity change, negative = inhibition, % at 105 µM; 230,000 tested, under 10 active; AID 1467; inconclusive = small, poorly fitted or top-dose-only inhibition, or a rising curve; inactive = flat fitted curve, though single readings scatter; no compound was filed as active;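 further: 0% = full activity with enzyme and -100% = basal without enzyme; dose as in the result columns while the protocol names 77 µM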
Target sequence (P06280 whole entry, looked up): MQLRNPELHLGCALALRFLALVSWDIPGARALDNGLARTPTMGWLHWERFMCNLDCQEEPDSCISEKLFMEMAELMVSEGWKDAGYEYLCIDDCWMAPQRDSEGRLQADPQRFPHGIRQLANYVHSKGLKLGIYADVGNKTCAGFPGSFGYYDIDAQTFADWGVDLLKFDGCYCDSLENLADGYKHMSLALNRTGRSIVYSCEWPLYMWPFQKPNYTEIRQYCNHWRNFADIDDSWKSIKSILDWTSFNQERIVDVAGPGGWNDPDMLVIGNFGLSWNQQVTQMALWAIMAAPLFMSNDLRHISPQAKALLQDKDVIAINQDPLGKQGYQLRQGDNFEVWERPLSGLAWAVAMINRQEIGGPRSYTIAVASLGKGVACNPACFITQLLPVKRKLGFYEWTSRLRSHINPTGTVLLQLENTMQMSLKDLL
Active calls of the source: *; ? = inconclusive; nt = not tested or not shown; & = joins results of further samples.

smiles | Rango-impB inh | miR-21 reporter | Rango release inh | GLA inh pH 4.5
COc1cc2c(cc1OC)C(C(=O)NCc1ccco1)C1c3ccccc3CCN1C2=O (centres undefined) | 1.2% | 0% | -4% | 1
CC(=O)N1CCN(C(=O)C(Cc2ccccc2)NC(=O)c2ccccc2)CC1 (centres undefined) | 0.3% | nt | ? | nt
CC(=O)c1c(C(C)=O)c(C)n(Cc2ccccc2)c1C | -0.1% | 6% | 1% | -1
CCN(CC)CCCNS(=O)(=O)c1ccc(OC)cc1 | -0.1% | 0% | -3% | -3
CCOC(=O)N1CCN(c2ncc(C(F)(F)F)cc2Cl)CC1 | 0.6% | -4% | 1% | 11
COCCN(Cc1cc2cc(C)ccc2[nH]c1=O)S(=O)(=O)c1ccc(Cl)cc1 | ? | 13% | 22% | nt
Nc1ccc2c(c1Cl)C(=O)c1ccc(N)c(Cl)c1C2=O | -6.0% | -51% | 16% | -12
Cc1ccc(CSc2nnc(CCNC(=O)OC(C)(C)C)o2)cc1 | -3.6% | 1%&-11% | 27% | 3
CCCCOP(=O)(c1ccc(N(C)C)cc1)C(O)c1ccncc1 (centres undefined) | 5.0% | -4% | 0% | 6
CN(C)C(=O)C(Sc1ccc(S(=O)(=O)N2CCCC2)cn1)c1ccccc1 (centres undefined) | -3.1% | nt | 1% | nt
CC(=O)Nc1ccc(N2C(=O)CC(Sc3nc(C)cc(C)n3)C2=O)cc1 (centres undefined) | 2.5% | -3% | 5% | nt
N#CC1=C(N)Oc2n[nH]c(-c3ccncc3)c2C1c1ccsc1 (centres undefined) | 0.3% | -7% | 1% | -1
O=C(NCc1ccccc1)c1ccc(NC2=NC3CS(=O)(=O)CC3S2)cc1 (centres undefined) | -0.1% | 6% | -6% | nt
Cc1cc(Nc2nc3ccccc3nc2Cl)n(-c2ccc([N+](=O)[O-])cc2)n1 | 2.8% | 7% | 11% | -3
COc1ccc(CN2CCN(C(=O)CC(C)C)CC2)cc1OC | 1.6% | -1% | 0% | -12
COc1ccc(NC(=O)NCc2cccnc2)c(OC)c1 | 0.6% | 6% | 25% | nt
COc1ccc(C2OCC3(CO2)SC(=O)NC3=O)cc1OC (centres undefined) | -2.1% | -13% | 1% | -14
COc1ccc(CNC(=O)C(c2ccc(C)o2)N(C(=O)c2snc(C(N)=O)c2N)c2ccccc2OC)cc1 (centres undefined) | -6.9% | 12% | -13% | nt
N=c1n(CCN2CCCCC2)c2ccccc2n1CC(=O)c1cccs1 | -3.0% | 2% | -11% | 2
CCc1nnc(NC(=O)c2cccc(OC)c2)s1 | -0.4% | -38% | 2% | 4
Cn1c(CNC(=O)c2ccco2)nnc1SCC(=O)Nc1ccc(Br)cc1F | -0.4% | 0% | -9% | 3
O=C(N/N=C/c1cc(Br)c(O)c([N+](=O)[O-])c1)C(O)(c1ccccc1)c1ccccc1 | -3.2% | nt | 9% | nt
COc1ccc(N2CCN(S(=O)(=O)c3ccc(C(=O)NCc4ccco4)cc3)CC2)cc1 | -0.6% | -1% | 1% | 3
Cc1ccc(S(=O)(=O)N2CCN(C(=O)COC(=O)c3c(C)cc(C)cc3C)CC2)c(C)c1 | -0.5% | nt | -10% | nt
CCC(C)NC(=O)CN(c1ccc(OC)cc1)S(=O)(=O)c1ccc(NC(C)=O)cc1 (centres undefined) | -0.7% | -11% | -10% | -6
COc1cc(OC)cc(-c2c(C#Cc3ccsc3)c3cc(-c4cc(OC)c(OC)c(OC)c4)ccc3n2C)c1 | 0.9% | nt | -14% | nt
O=C(CCn1cnnn1)Nc1ccccc1F | 0.9% | -1% | 11% | 6
COC(=O)c1sccc1NC(=S)NCc1ccc(Cl)cc1 | -0.1% | -9% | 1% | 0
COC(=O)c1ccc(CNC(=O)COC(=O)C2CCC(C(C)(C)C)CC2)cc1 (centres undefined) | 7.5% | 0% | 9% | -11
CCOc1ccc(CCNC(=O)COC(=O)c2ccc(S(=O)(=O)N3CCCC3)cc2)cc1OCC | 0.2% | nt | 15% | nt
C/C(CC(C)(C)c1ccccc1)=N\NS(=O)(=O)c1ccccc1 | 1.4% | -10% | -14% | 10
CCCCn1c(=O)[nH]c(=O)c2c1nc(-c1cccc(OC)c1)n2C | 9.0% | -5% | ? | nt
N#C/C(C(=O)N1CCCC1)=C1/N=C(N)c2ccccc21 | -1.4% | -1% | -6% | -1
Cc1ccc(NC(=S)NC2CC3CCCC(C2)N3Cc2cccs2)cc1 (centres undefined) | 1.9% | -1% | 10% | -5
Cc1ccc(C#CC[N+]2(CC#Cc3ccc(C)cc3)CCCCC2)cc1 | 1.4% | ? | -6% | -12
CCOc1ccc(C(=O)C(C)OC(=O)Cn2c(C)csc2=O)cc1 (centres undefined) | -4.1% | nt | 2% | nt
CC(C)Cn1c(N)c(C(=O)COC(=O)c2ccccc2F)c(=O)n(C)c1=O | ? | 0% | -3% | -8
CNc1oc(-c2ccccc2F)nc1S(=O)(=O)c1ccc(C)cc1 | 6.5% | 5% | -14% | nt
Cc1ccc(S(=O)(=O)NCC2CCC(C(=O)O)CC2)cc1 (centres undefined) | -2.5% | 1% | 2% | -5
O=C(c1cccs1)N(Cc1ccccn1)Cc1ccco1 | -4.5% | 3% | 3% | -11
COC(=O)[C@H](C)[C@H]1C[C@]1(C)[C@H](NC(=O)OCc1ccccc1)c1ccccc1 | 2.7% | 1% | -14% | 8&-10
COc1cc(-c2noc(-c3cccc(Cl)c3)n2)cc(OC)c1OC | 3.6% | -4% | 2% | 2
COc1ccc(CC(=O)N[C@@H](CCSC)C(=O)N2CCC3(CC2)NCCc2[nH]cnc23)cc1 | 1.2% | -3% | 4% | nt
CCOC(=O)Cc1csc(NS(=O)(=O)c2ccc(SC)cc2)n1 | 1.8% | -1% | -1% | 3
O=C(COc1ccc2c3c(c(=O)oc2c1)CCC3)N[C@@H](Cc1ccccc1)C(=O)O | -1.5% | 0% | 7% | nt
CCOC(=O)Cn1c(O)c(N=NC(=O)CNC(=O)Cc2ccccc2)c2ccccc21 | -1.5% | 0% | ? | nt
COc1ccc(CC(=O)c2ccc(OC)c(OC)c2C)cc1OC | 0.0% | -12% | -6% | 4
CCCCOc1ccc(C(O)(CC)CCN2CCOCC2)cc1 (centres undefined) | -0.7% | -13% | -1% | -14
CC(C)(C)c1nnc2sc(SC/C(O)=C(\C#N)c3nc4ccccc4[nH]3)nn2c1=O | ? | 2% | -26% | 0
COc1ccc(Cn2c(-c3ccc(OC)cc3)n[nH]c2=S)cc1 | 1.3% | -5% | -6% | nt

Carrying on.
smiles | Rango-impB inh | miR-21 reporter | Rango release inh | GLA inh pH 4.5
c1ccc(CNc2ncnc3c2oc2ccccc23)nc1 | ? | -59% | -8% | 4
CNC(=S)N/N=C/c1ccc(OCC(=O)Nc2c(C)cc(C)cc2C)c(OC)c1 | -0.3% | -9% | -1% | -5
O=C(Nc1nonc1NC(=O)c1cccs1)c1cccs1 | 0.0% | 26% | -16% | -2
COc1cc(S(=O)(=O)Nc2ccccc2C)ccc1Cl | -0.4% | -2% | -7% | -3
Cc1c(C(=O)Nc2cccc(S(=O)(=O)N3CCOCC3)c2)oc2ccc(Br)cc12 | -3.3% | nt | 11% | nt
O=C(CCS(=O)(=O)c1ccc(Br)cc1)N1CCN(c2ccccc2)CC1 | 0.4% | -1% | -12% | 0
COCCNC(=S)N/N=C/c1ccc2c(c1)OCCO2 | -0.7% | -16% | 2% | 1
CCN(C(=O)CN1CCC(C(=O)OC)CC1)c1c(N)n(Cc2ccccc2)c(=O)[nH]c1=O | -0.1% | nt | -8% | nt
CCOC(=O)c1cc(C)sc1NC(=O)C1CCC1 | 2.5% | -7% | 2% | 1
Cc1ccccc1OCC1Cc2c(nc(N)c(C#N)c2N)O1 (centres undefined) | -1.4% | -67% | 15% | 6
CN(CC(=O)Nc1ccc(F)c(F)c1F)C(=O)/C=C/c1ccc(Cl)cc1 | -2.5% | -1% | 1% | 1
CCOc1ccccc1CNC(=O)Cn1c(=O)oc2ccccc21 | -5.2% | -3% | 18% | -2
Clc1nnc(N2CCCCC2)c2ccccc12 | -2.9% | -38% | 8% | -1
COc1ccc(C(=O)c2c(C)oc3ccc(O)cc23)c(OC)c1 | 0.7% | 2% | -23% | nt
O=C(Nc1ccccc1C(=O)N1CCN(Cc2ccccc2)CC1)c1ccccc1 | 0.8% | 1% | 10% | nt
CCCCn1c(N)c(N(CC)C(=O)CN2C(=O)NC(C)(c3ccccc3)C2=O)c(=O)[nH]c1=O (centres undefined) | 2.8% | nt | 28% | nt
Cc1ccc(C)c(N2CCN(C(=O)CSc3ccsc3[N+](=O)[O-])CC2)c1 | -4.1% | -4% | -7% | -6
Cc1ccccc1OCCSc1nnc(C)n1-c1ccccc1 | 0.4% | -64% | 2% | -1
S=c1[nH]nc(-c2cccs2)n1/N=C/c1cn(-c2ccccc2)nc1-c1cccs1 | -0.7% | -43% | 0% | -11
COc1ccc(N(CC(=O)N2c3ccccc3CC2C)S(=O)(=O)c2c(C)noc2C)cc1 (centres undefined) | 0.0% | 11% | 55% | -15

A second format for part of the listing above.
CCOc1ccccc1CNC(=O)Cn1c(=O)oc2ccccc21
  Rango-impB inh: -5.2%
  miR-21 reporter: -3%
  Rango release inh: 18%
  GLA inh pH 4.5: -2

Clc1nnc(N2CCCCC2)c2ccccc12
  Rango-impB inh: -2.9%
  miR-21 reporter: -38%
  Rango release inh: 8%
  GLA inh pH 4.5: -1

COc1ccc(C(=O)c2c(C)oc3ccc(O)cc23)c(OC)c1
  Rango-impB inh: 0.7%
  miR-21 reporter: 2%
  Rango release inh: -23%
  GLA inh pH 4.5: nt

O=C(Nc1ccccc1C(=O)N1CCN(Cc2ccccc2)CC1)c1ccccc1
  Rango-impB inh: 0.8%
  miR-21 reporter: 1%
  Rango release inh: 10%
  GLA inh pH 4.5: nt

(list continues)
smiles | Rango-impB inh | miR-21 reporter | Rango release inh | GLA inh pH 4.5
O=C(NN1C(=O)C2C3C=CC(C3)C2C1=O)c1ccco1 (centres undefined) | 3.9% | -11% | 1% | 3
Cc1cccc(NC(=O)COC(=O)c2ccc(S(=O)(=O)N3CCCC3)cc2)c1 | -2.5% | nt | -5% | nt
COc1ccc(NC(=O)CSCc2cc(=O)n3ccsc3n2)cc1 | 0.1% | 0% | -9% | nt
O=C(Nc1ccccc1C(=O)NCCN1CCOCC1)c1ccco1 | -0.7% | -6% | 7% | 3
O=C(COC(=O)Cn1nc(-c2ccccc2)oc1=O)Nc1ccc(F)cc1 | -0.3% | nt | 9% | nt
O=C(COC(=O)c1ccccc1Br)NC1CCCC1 | -0.1% | -32% | 3% | nt
Cc1nc(Cl)nc(N(C)c2ccccc2)c1[N+](=O)[O-] | 2.8% | -13% | -5% | -9
Cc1nnc(NC(=O)c2csc3c2CCCC3)s1 | nt | -3% | nt | 8
CCOc1ccc(N(CC)S(=O)(=O)c2c(C)[nH]c(=O)[nH]c2=O)cc1 | -2.5% | 4% | 36% | nt
Cn1c(N)c(C(=O)COC(=O)[C@@H]2CCCN2S(=O)(=O)c2ccc(Cl)cc2)c(=O)n(C)c1=O | 3.8% | 0% | -4% | -3
C=CCOC(=O)C(C#N)c1nc2ccccc2nc1N1CCN(Cc2ccc3c(c2)OCO3)CC1 (centres undefined) | ? | -6% | ? | 2
CCOc1ccc(CCNC(=O)c2cn(C)c3ccc(S(=O)(=O)N4CCOCC4)cc3c2=O)cc1OCC | -2.4% | -1%&-1% | -8% | nt
Cc1ccc(C(c2c(C)[nH][nH]c2=O)c2c(C)[nH][nH]c2=O)cc1[N+](=O)[O-] | -9.5% | -7% | 4% | 4
CCOC(=O)N1CCN(C(=O)c2cc(COc3c(F)cccc3F)on2)CC1 | -1.7% | -55% | 1% | nt

Sorted by SMILES length (ascending): part of the list above
smiles | Rango-impB inh | miR-21 reporter | Rango release inh | GLA inh pH 4.5
CCOC(=O)N1CCN(C(=O)c2cc(COc3c(F)cccc3F)on2)CC1 | -1.7% | -55% | 1% | nt
CCOc1ccc(N(CC)S(=O)(=O)c2c(C)[nH]c(=O)[nH]c2=O)cc1 | -2.5% | 4% | 36% | nt
Cc1ccc(C(c2c(C)[nH][nH]c2=O)c2c(C)[nH][nH]c2=O)cc1[N+](=O)[O-] | -9.5% | -7% | 4% | 4

The list is partial; the hit share may differ from the screen's.
